Bioassay records from PubChem.
Mtb H37Rv: Mycobacterium tuberculosis H37Rv growth inhibition, putative kinase inhibitor library, confirmatory dose response (AID 2842) | 5.2% of 24,000 active | M. tuberculosis H37Rv growth inhibition; higher % means a stronger effect; some inactives read as strong as hits | inhibition, % at 10 µg/mL; hits with a dose series show IC90 in µg/mL;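 active = confirmed in a dose series; about a fifth of its hits are not listed in these tables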;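 also: bacteria incubated one week before Alamar blue readout; 0% = bacteria only wells and 100% = bacteria with high antibiotic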
Active calls of the source: *.

SMILES | Mtb H37Rv
O=C(Cc1ccc(F)cc1)Nc1nnc(-c2ccc(F)cc2)s1 | -3.4%
CCN1CCN(c2ccc(N3CCN(C(=O)c4ccc(Br)o4)CC3)nn2)CC1 | -8.6%
Cc1ccc(C(C)C)c(OCC(O)Cn2c(N3CCCCCC3)nc3c2c(=O)[nH]c(=O)n3C)c1 (stereo unspecified) | 1.8%
CCOc1ccccc1/C=N/NC(=O)CNC(=O)c1cccs1 | 2.4%
CCOC(=O)c1sc(NC(=O)/C=C/c2ccc([N+](=O)[O-])s2)cc1C | -20.4%
CC1CCc2c(sc(NC(=O)C(C)Oc3cccc(Br)c3)c2C#N)C1 (stereo unspecified) | 83.9%
NC(=O)Cn1ccn(-c2ccc(F)c(F)c2)c(=O)c1=O | 2.1%
CC(Sc1nc2ccccc2s1)C(=O)Nc1nnc(C(C)C)s1 (stereo unspecified) | 11.2%
CC(=O)Nc1ccc(S(=O)(=O)Nc2ccc(-n3c(C)nc4ccccc4c3=O)cc2)cc1 | 38.1%
O=C1c2cccc3cccc(c23)C(=O)N1CCc1ccc(S(=O)(=O)N2CCCCC2)cc1 | 5.87µg/mL*
O=c1[nH]cnc2c1cnn2-c1ccccc1 | -3.2%
COc1cc(C2NC(=O)N(C)C3=C2C(=O)CCC3)ccc1O (stereo unspecified) | -19.1%
CC1CC(C)CN(S(=O)(=O)c2ccc(C(=O)Nc3nc(-c4ccc(Br)cc4)cs3)cc2)C1 (stereo unspecified) | 9.1%
Cc1ccc(-n2c(=O)[nH]c3c(C(N)=O)nc(C(C)C)nc32)cc1C | 13.5%
O=C(CSc1nnc2[nH]c(=O)ccn12)Nc1ccc(C(F)(F)F)cc1 | 10.8%
N#C/C(=C/Nc1ccc(F)cc1[N+](=O)[O-])c1nc(-c2ccc(F)cc2)cs1 | 6.8%
Cc1ccccc1C(=O)Nc1nnc(-c2cccnc2)o1 | 50.1µg/mL*
Cc1ccc(N2CC(NC(=O)N3CCN(c4ccc(F)cc4)CC3)CC2=O)cc1C (stereo unspecified) | 4.3%
Cc1[nH]c2ccccc2c1SCC(=O)NCc1ccco1 | 4.3%
CCn1c(N2CCN(Cc3c(Cl)cccc3Cl)CC2)nc2c1c(=O)[nH]c(=O)n2C | -6.7%
COc1ccc(-n2c(=O)[nH]c3c(C(N)=O)nc(-c4ccc(F)cc4)nc32)cc1OC | -9.1%
CCCn1c2c(c(=O)[nH]c1=O)C(c1ccc(OCC)cc1)C1=C(COC1=O)N2 (stereo unspecified) | -8.6%
COc1ccc(N2CC(NC(=O)Nc3ccc(S(=O)(=O)NC(C)=O)cc3)CC2=O)cc1 (stereo unspecified) | -6.7%
COc1ccc(OC)c2sc(NNC(=O)c3nc4ccccc4s3)nc12 | -1.2%
O=C(Nc1nnc(-c2ccc(F)cc2)o1)c1sc2ccccc2c1Cl | 9.54µg/mL*

Two neighbouring entries already listed, for reference:
SMILES | Mtb H37Rv
O=C(Cc1ccc(F)cc1)Nc1nnc(-c2ccc(F)cc2)s1 | -3.4%
CCN1CCN(c2ccc(N3CCN(C(=O)c4ccc(Br)o4)CC3)nn2)CC1 | -8.6%

Filtered by structure: the entries above containing fluorine.
SMILES | Mtb H37Rv
O=C(Cc1ccc(F)cc1)Nc1nnc(-c2ccc(F)cc2)s1 | -3.4%
NC(=O)Cn1ccn(-c2ccc(F)c(F)c2)c(=O)c1=O | 2.1%
O=C(CSc1nnc2[nH]c(=O)ccn12)Nc1ccc(C(F)(F)F)cc1 | 10.8%
N#C/C(=C/Nc1ccc(F)cc1[N+](=O)[O-])c1nc(-c2ccc(F)cc2)cs1 | 6.8%
Cc1ccc(N2CC(NC(=O)N3CCN(c4ccc(F)cc4)CC3)CC2=O)cc1C (stereo unspecified) | 4.3%
COc1ccc(-n2c(=O)[nH]c3c(C(N)=O)nc(-c4ccc(F)cc4)nc32)cc1OC | -9.1%
O=C(Nc1nnc(-c2ccc(F)cc2)o1)c1sc2ccccc2c1Cl | 9.54µg/mL*

Continuation.
SMILES | Mtb H37Rv
COc1ccc(C)cc1-n1ccn(CC(=O)Nc2ccccc2F)c(=O)c1=O | -8.6%
CCOC(=O)c1nn(-c2ccc(OC)cc2)c(=O)c2c(NC(=O)c3cc([N+](=O)[O-])ccc3Cl)scc12 | -1.4%
CC(C)(C)c1ccc(-n2c(=O)[nH]c3c(C(N)=O)nc(-c4ccccc4O)nc32)cc1 | 14.3%
O=C(Nc1nc2c(ccc3ccccc32)s1)c1cc(-c2ccccc2)nc2ccccc12 | 20.9%
Cc1ccc(C2=NC(C)(C)N=C2SCC(=O)Nc2ccccc2)cc1 | 4.0%
Cc1cc(O)c(C(c2cccc(Cl)c2)N2CCN(C)CC2)c(=O)n1Cc1cccnc1 (stereo unspecified) | 0.7%
O=C(Nc1nnc(-c2ccc(Br)cc2)s1)c1ccc(S(=O)(=O)N2CCOCC2)cc1 | -6.0%
COc1ccc(NC(=O)CSc2nc(-c3cccs3)nc3c2c(=O)n(C)c(=O)n3C)cc1 | 17.4%
Cc1ccccc1C(=O)Nc1c(C(=O)Nc2ccc3c(c2)OCCO3)oc2ccccc12 | -2.1%
O=C(O)CCC(=O)N(Cc1ccccc1)Cc1cn(-c2ccccc2)nc1-c1cccnc1 | -15.6%
Cc1ccc(NC(=O)CN2N=NC3C(=O)N(c4ccc(F)cc4)C(=O)C32)cc1 (stereo unspecified) | -6.4%
COc1ccccc1NC(=O)c1oc2ccccc2c1NC(=O)CCc1ccccc1 | -4.1%
CCOC(=O)c1ccccc1NC(=O)CC1SC(=NC)N(C)C1=O (stereo unspecified) | -8.9%
O=C(Nc1ccc(F)c(Cl)c1)c1oc2ccccc2c1NC(=O)C1CCCO1 (stereo unspecified) | 3.3%
O=C(Cn1c(=O)c2ccc(Cl)cc2n2nncc12)NCc1ccc2c(c1)OCO2 | -3.7%
CCCCOc1ccc(C(=O)Nc2nnc(-c3ccncc3)o2)cc1 | 3.42µg/mL*
CCOc1ccccc1NC(=O)c1oc2ccccc2c1NC(=O)CC1CCCC1 | 5.5%
Cc1ccnc(SCCn2c(N3CCCCCC3)nc3c2c(=O)n(C)c(=O)n3C)n1 | 3.8%
COc1ccc(OC)c(/C=N/NC(=O)CNC(=O)c2ccc(OC)c(OC)c2)c1 | -6.8%
CCOC(=O)c1ccc2nc(NC(=O)c3cccc(OC)c3)sc2c1 | -5.6%
Cc1ccc(/C(O)=C2\C(=O)C(=O)N(c3ccccn3)C2c2ccc(C)cc2)cc1 (stereo unspecified) | 56.9%
Cc1ccc(/C(O)=C2\C(=O)C(=O)N(c3nncs3)C2c2cccc([N+](=O)[O-])c2)cc1 (stereo unspecified) | 22.7%
Cc1ccccc1C(=O)Nc1cccc(-c2ccc(N3CCOCC3)nn2)c1 | -11.7%
O=C(Oc1coc(CSc2ncccn2)cc1=O)c1c(F)cccc1Cl | -3.4%
COc1cc2c3nnc(-c4ccccc4)c-3cn(Cc3ccccc3F)c2cc1OC | 20.1%
The results go on.
SMILES | Mtb H37Rv
Cc1cc(NC(=O)c2ccco2)nc2c1c(=O)oc1ccccc12 | -9.6%
COc1ccc(CNC(=O)c2cnc3scc(C)n3c2=O)cc1 | -2.5%
CCOC(=O)c1nn(-c2ccc(F)cc2)c(=O)c2c(NC(=O)c3c(-c4ccccc4Cl)noc3C)scc12 | 0.8%
COc1ccc(NC2CC(=O)N(c3ccccc3)C2=O)cc1 (stereo unspecified) | -5.9%
O=C(Nc1nc2c(s1)COc1ccccc1-2)c1ccc(-c2nc3ccccc3s2)s1 | 2.3%
O=C1N/C(=N\N=C\c2ccccc2O)SC1Cc1ccc(Br)cc1 (stereo unspecified) | 1.14µg/mL*
CC(C)c1ccc(-c2nc(N3CCCCC3)nc3n[nH]c(N)c23)cc1 | 7.5%
COc1ccc(C)c2sc(N3CCCCC3)nc12 | 17.0%
Cc1ccc2cc(CCNC(=O)c3ccc(F)c(F)c3)c(=O)[nH]c2c1 | -1.5%
CCC(CC)C(=O)Nc1nnc(-c2cccc([N+](=O)[O-])c2)s1 | 18.0%
CCOc1cccc2nc(NC(=O)c3ccc(Oc4ccccc4)cc3)sc12 | 13.7µg/mL*
Cc1ccc(-n2ncc3c(N4CC(C)OC(C)C4)ncnc32)cc1Cl (stereo unspecified) | 10.2%
Cc1c(C)n2c(SCC(=O)Nc3ccc(Cl)cc3)nnc2[nH]c1=O | -15.9%
Cc1ccc(C(=O)Nc2cc3c4c(c2)C(C)C(=O)N4CCC3)cc1 (stereo unspecified) | 18.2%
Cc1ccc(-c2nnc3ccc(SCC(=O)Nc4cccc(C)c4)nn23)cc1 | 1.1%
O=C(CC1S/C(=N/N=C2CCCCC2)NC1=O)Nc1ccc([N+](=O)[O-])cc1 (stereo unspecified) | 1.9%
Cc1ccc2c(c1)=C(c1sc(=O)[nH]c1O)C(=O)N=2 | 22.8µg/mL*
N#C/C(=C\c1ccc(-c2ccccc2[N+](=O)[O-])o1)c1nc2ccccc2c(=O)[nH]1 | 7.3%
CCn1c(SCC(=O)O)nc2c1c(=O)[nH]c(=O)n2C | 10.7%
Cc1ccc2cc(CCNC(=O)c3cccc(C(F)(F)F)c3)c(=O)[nH]c2c1 | -1.0%
O=C(CSc1ccc2nnc(-c3ccncc3)n2n1)Nc1ccc(C(F)(F)F)cc1 | 6.4%
NC(=O)c1c(NC(=O)c2ccc(S(=O)(=O)N3CCCCCC3)cc2)sc2c1CCCCC2 | 5.6%
CCc1cccc2sc(N(CCCn3ccnc3)C(=O)c3cccs3)nc12 | 0.34µg/mL*
CC1CCc2nc(NC(=O)c3ccc(S(=O)(=O)N4CCc5ccccc54)cc3)sc2C1 (stereo unspecified) | 1.9%
Cc1ccc(S(=O)(=O)NC2CC(=O)N(c3ccc4c(c3)OCCO4)C2)cc1 (stereo unspecified) | 4.3%
Additional records:
SMILES | Mtb H37Rv
CCCc1nc(SCC(=O)Nc2ccccc2)c2c(=O)n(C)c(=O)n(C)c2n1 | -2.0%
O=C1CN(C(=O)COc2ccccc2)CCN1 | 2.6%
Cc1cccc(-c2nc(C(N)=O)c3[nH]c(=O)n(-c4ccc(F)cc4)c3n2)c1 | -1.0%
Cc1ccc2cc(CCNC(=O)c3cc([N+](=O)[O-])ccc3Cl)c(=O)[nH]c2c1 | -5.5%
CCOc1ccc(S(=O)(=O)c2cn(Cc3ccccc3F)c3ccc(F)cc3c2=O)cc1 | -7.7%
O=C1N=c2ccc(F)cc2=C1c1sc(=S)n(CCS(=O)(=O)O)c1O | -13.5%
O=C1NC(=Nc2ccc(F)cc2)S/C1=C\c1cccnc1 | 3.5%
O=C(N=Nc1c(O)[nH]c2ccc([N+](=O)[O-])cc12)c1ccncc1 | 85.0%
CCOC(=O)c1nn(-c2ccc(OC)cc2)c(=O)c2c(NC(=O)c3ccc(OC(C)C)cc3)scc12 | -0.6%
O=C(O)C(Sc1nncc(-c2ccccc2)n1)c1ccccc1 (stereo unspecified) | -6.4%
CC(C)(C)n1nc2c(c1NC(=O)c1c(F)cccc1Cl)CS(=O)C2 (stereo unspecified) | 13.7%
CC(C(=O)O)N1C(=O)C2C3CC(C2C1=O)C1C(c2ccc(Cl)cc2)c2sc(=O)[nH]c2SC31 (stereo unspecified) | -5.8%
Cc1nc2ccc3nc(NC(=O)c4ccc(Br)cc4)sc3c2s1 | 7.3%
COC(=O)CSC1=C(C#N)C(c2sccc2C)CC(=O)N1 (stereo unspecified) | -17.1%
CCC(CC)C(=O)Nc1nnc(C(C)C)s1 | 8.3%
CCOC(=O)CCC(=O)Nc1c(C(=O)Nc2ccc(C)cc2)oc2ccccc12 | 5.1%
O=C(CCCC(=O)N/N=C/c1ccccc1C(=O)O)N/N=C/c1ccccc1C(=O)O | 4.2%
CC(=O)Nc1nc(SCC(=O)Nc2ccc(C(N)=O)cc2)[nH]c(=O)c1NC(=O)c1ccccc1 | -1.9%
CS(=O)(=O)Nc1ccc(C(=O)/C=C/c2ccco2)cc1 | 0.3%
O=C(NCCC1=CCCCC1)C(=O)Nc1ccc(F)c(F)c1 | 13.6%
CCc1nnc(NC(=O)CSc2nccn2-c2cccc(OC)c2)s1 | -9.6%
Cn1c(=O)[nH]c(=O)c2c1nc(N1CCCCC1)n2CCCOc1ccccc1 | -2.9%
COC(=O)c1ccc(NC(=O)CSc2ncnc3sc4c(c23)CCC4)cc1 | -8.3%
COc1ccc(-c2nnc(NC(=O)c3ccccc3C)o2)cc1 | 9.97µg/mL*
COc1ccc(-c2nnc3ccc(SCc4cccnc4)nn23)cc1 | -2.6%
The results go on.
SMILES | Mtb H37Rv
CCOc1cc(-c2nnc(NC(=O)c3cccc(Cl)c3)o2)cc(OCC)c1OCC | -11.2%
NC(=O)c1ccsc1NC(=O)c1ccc(Br)s1 | 14.8%
COC(=O)c1c(NC(=O)c2ccc(C(C)=O)cc2)sc2c1CC(C)(C)NC2(C)C | -3.8%
O=C1CCc2cc(S(=O)(=O)Nc3cc(F)ccc3F)cc3c2N1CCC3 | -2.7%
COc1ccccc1OCC(=O)N1c2ccccc2CC1C(N)=O (stereo unspecified) | -0.8%
CCn1c(SCC(=O)Nc2cccc(Cl)c2)nc2c(c1=O)SC(C)C2 (stereo unspecified) | 0.7%
COC(=O)C1=C(CS(=O)(=O)c2ccc(OC)cc2)NC(=O)NC1c1ccc(O)c(OC)c1 (stereo unspecified) | -11.6%
Nc1c(-c2nc(-c3ccc4c(c3)OCO4)no2)nnn1-c1ccc(Cl)cc1 | -3.8%
Cn1c2c(c(=O)[nH]c1=O)C(c1cccnc1)C1=C(CC(C)(C)CC1=O)N2 (stereo unspecified) | 5.4%
Cc1cc(F)ccc1S(=O)(=O)Nc1c(C)n(C)n(-c2ccccc2)c1=O | 6.1%
O=C(O)CC1SC(=Nc2ccccc2)N(c2ccccc2)C1=O (stereo unspecified) | -3.0%
COc1ccc(-n2c(CSc3ncccn3)nnc2SCC(=O)NO)cc1 | 3.6%
Cc1ccc(-c2nnc(NC(=O)c3cccc(Oc4ccccc4)c3)o2)c(C)c1 | 25.3µg/mL*

Three compounds out of the list, ordered by count of non-hydrogen atoms, highest first.
SMILES | Mtb H37Rv
CC(=O)Nc1ccc(S(=O)(=O)Nc2ccc(-n3c(C)nc4ccccc4c3=O)cc2)cc1 | 38.1%
Cc1nc2ccc3nc(NC(=O)c4ccc(Br)cc4)sc3c2s1 | 7.3%
O=C1CN(C(=O)COc2ccccc2)CCN1 | 2.6%

An excerpt. The share of hits here may be higher or lower than overall.
